Ba CapD inh: inhibitors of Bacillus anthracis CapD enzyme | purified CapD enzyme, fluorescence intensity read-out; stronger effect = lower value; some hits fall short of the stated cut | z-score (concentration not given with the values) | 140,000 tested, 0.23% active | AID 492967;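 active = z-score under -4 in either of two replicates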;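 also: stock transfer was 100 nL into about 40 µL; score is relative to mean and spread of the plate; one replicate is shown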
AID504770: E. coli YBA685 growth inhibition, screen for V. cholerae RctB inhibitors; AID 504770; E. coli YBA685 rctB-dependent plasmid, OD600 growth, 3 h; stronger effect = lower value; 130,000 tested, 0.27% active; z-score (test concentration not listed);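 active = z-score under -2 on both plates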;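 also: wells of about 30 µL received 100 nL stock; score is relative to mean and SD of the test wells; the first replicate is given; strong numbers were not always called active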
Active calls of the source: *; i = inactive; . = no result given; & = joins results of further samples. Not a hit list, and some 0.37% of all compounds hit somewhere here.

SMILES	Ba CapD inh	AID504770
O=C1c2ccccc2S(=O)(=O)N1Cc1cccc(S(=O)(=O)N2CCOCC2)c1	.	-0.05
CCOc1ccc(/C=C2/C(=O)NC(=O)N(C3CCCCC3)C2=O)cc1	0.015	-0.9
CCCCNc1c(Cl)cnn(-c2ccccc2)c1=O	-0.23	-0.25
COc1cc(OC)cc(-c2cc3nc(C4CCNCC4)cc(=O)n3[nH]2)c1	12	-0.55
Cc1c(C(=O)N2CCC3(CC2)OCCO3)sc2ncnc(N3CCN(c4ccccc4F)CC3)c12	0.15	.
CC(C)c1ccc(CN(Cc2ccco2)S(=O)(=O)c2ccc(F)c(F)c2)cc1	-0.21	.
CCC(C)NC(=O)c1ccc(CS(=O)(=O)c2ccc(OC)cc2)o1 (centres undefined)	-0.31	-0.25
CCOC(=O)C1=C(C)OC(N)=C(C#N)C1c1ccc(C(=O)OC)cc1 (centres undefined)	0.62	.
CCN1C(=O)/C(=C\c2ccc(C)o2)SC1=S	-0.025	0.85
Fc1cccc(F)c1NC(=S)Nc1cc(C(F)(F)F)cc(C(F)(F)F)c1	0.7	.
O=C1C=CC(=O)N1Cc1ccccc1	.	-2.5*
CCOC(=O)c1sc2nc(SCC(=O)Nc3cccc(C(F)(F)F)c3)n(Cc3ccco3)c(=O)c2c1C	1.5	.
O=C(Cn1nnc(-c2cccs2)n1)N1c2ccccc2CCc2ccccc21	.	0.4
COC(c1cccs1)c1c(C)[nH]c2ccccc12 (centres undefined)	0.46	-1.1
CC(C)Cn1c(SCC(=O)NC2CC2)nnc1-c1ccccc1F	.	-0.8
CC(C)NC(=O)Cn1cc(C(F)(F)F)ccc1=O	.	1.2
COc1cc(/C=C2\C(=O)NC(=O)N(c3ccc(Br)cc3)C2=O)ccc1OCC(=O)O	-0.14	.
S=C(S)N1CCCCC1c1cccnc1 (centres undefined)	0.08	-0.6
O=S1(=O)CC(O)C(S(=O)(=O)c2ccccc2)C1 (centres undefined)	0.065	0.2
CC(=O)N1c2ccc(S(=O)(=O)N3CCCC3)cc2CC1C(=O)N1CCN(Cc2ccccc2)CC1 (centres undefined)	0.015	0.2
Cc1nn(-c2ccccc2)c2sc(C(=O)NCCCn3ccnc3)cc12	2.5	1.3
O=C(Cn1c(=O)oc2cc(S(=O)(=O)NC3CCCCC3)ccc21)N1CCCCCC1	-0.66	-1
O=C(NCc1ccco1)c1cn(-c2ccccc2)nc1-c1cccnc1	-0.36	0.3
Cc1ccc(CC(=O)N2CCOCC2)cc1	-0.57	2.2
COc1ccc(C(=O)C(C)OC(=O)Cn2c(CS(C)(=O)=O)nc3ccccc32)cc1 (centres undefined)	.	-0.45
O=C(CSc1nnnn1-c1ccccc1)NC(C(=O)O)(c1ccccc1)c1ccccc1	0.34	-0.1
CCN(C(=O)CSc1cccc[n+]1[O-])c1ccccc1	-0.2	-0.95
Cc1ccccc1-n1[nH]c(C)c(C=Nc2cc([N+](=O)[O-])cc([N+](=O)[O-])c2O)c1=O	-1.8	.
CCOC(=O)C1=C(NC(=O)CSc2nnnn2-c2ccccc2)SC2CN(C)CCC12 (centres undefined)	0.83	0.1
CN1C(=O)CC(C(=O)Nc2cccc(Cl)c2)SC1=Nc1cccc(C(F)(F)F)c1 (centres undefined)	0.025	.
O=C(Nc1ccc(Cl)cc1-c1nc2ccccc2s1)c1ccco1	.	0.05
O=C(CSc1ncnc2ccccc12)NCc1ccco1	.	-0.25
CC(=O)N1c2ccccc2C2(O)N=C(c3ccccc3)SC12 (centres undefined)	0.18	0.05
CCOC(=O)N1CCc2c(sc3c2C(=O)NC(c2ccc(OCC)cc2)N3)C1 (centres undefined)	0.52	-0.9
CCCC(=O)Nc1ccc2c(c1)COC2=O	2.2	0.2
COc1cccn(CC(=O)NN)c1=O	1.1	-0.05
Cc1ccccc1CNC(=O)c1oc2ccc3c(c2c1C)C(O)CC(C)(C)O3 (centres undefined)	60	0.8
CCc1ccc(N2C(=O)c3ccccc3NC2c2ccc(OCc3ccccc3)cc2)cc1 (centres undefined)	31	.
O=C(NC(=S)Nc1ccc(-c2nc3ccccc3o2)cc1)c1cc2ccccc2o1	-0.12	0.45
CC1CN(C(=O)Cc2csc3nc(-c4ccc(Cl)cc4)cn23)CC(C)O1 (centres undefined)	.	0.25
COc1cc(C2C(C(=O)Nc3ccccc3C)=C(C)NC3=C2C(=O)CCC3)cc(OC)c1OC (centres undefined)	13	.
CCc1ccc(OCCNC(=O)c2ccco2)cc1	-0.06	-1.1
COc1ccc2c(=O)c(-c3ccccc3)coc2c1	-0.75	-0.4
NC(=O)C1(c2ccccc2)CCC(=O)N1c1ccccc1 (centres undefined)	-1	-1.1
O=C(O)Cn1c2ccccc2c2nc3ccccc3nc21	-0.48	-0.9
COc1ccc(C)cc1NC(=O)c1sc2nc(C)nc(N3CCCCC3)c2c1C	0.78	.
O=C(NCCCN1CCc2ccccc2C1)Nc1ccc(Cl)cc1	0.055	-1.1
O=C1C2CCC(C(O)C2)N1Cc1ccccc1 (centres undefined)	-0.52&-0.62	2.4
Cc1sc(-c2cccnc2)nc1OC(=O)c1ccc(Cl)c(Cl)c1	-0.91	.
Cc1ccc(-c2cc(NC(=O)CNC(C)c3ccc(F)cc3F)on2)cc1 (centres undefined)	.	-0.5

Other entries
SMILES	Ba CapD inh	AID504770
O=C(Nc1nc2ccc(Cl)cc2s1)C1CN(C(c2ccccc2)c2ccccc2)C1	1.1	1.4
CC(NC(=O)c1ccncc1)C(c1cccs1)N1CCN(c2ccccc2)CC1 (centres undefined)	0.39	-0.2
COc1cccc(CC(=O)n2nc(N)c3cc4ccc(OC)cc4nc32)c1	1.4	-0.35
CCC1(C)CC(CCNCc2ccc(F)cc2)(c2ccccc2OC)CCO1 (centres undefined)	0.21	.
Cc1cc(NC(=O)CSc2nc3ccccc3c(=O)n2CCc2ccccc2)no1	-0.2	-1
C=CCSc1nc(Oc2ccc3ccccc3c2)c2sccc2n1	0.53	.
CCOc1cccc2c1OC(c1ccccc1Cl)N1N=C(c3cccc(OC)c3)CC21 (centres undefined)	-0.65	.
O=c1/c(=C/c2ccc(N3CCOCC3)cc2)sc2nc3ccccc3n12	0.085	-0.4
Clc1ccc(-c2nc(CN3CCOCC3)cs2)cc1	-0.21	0.4
Cc1nnc(NC(=O)CSc2nnc(NC(=O)c3cc([N+](=O)[O-])ccc3Cl)s2)s1	-0.43	.
Clc1ccc(CON/C=N\c2ncnc3sccc23)c(Cl)c1	0.24	.
COCc1c(C(=O)OCC(=O)N2c3ccccc3CC2C)oc2ccccc12 (centres undefined)	.	0.3
Cc1ccc(P(/C=C2\N(C)c3ccccc3C2(C)C)(=Nc2ccc(S(N)(=O)=O)cc2)N2CCOCC2)o1 (centres undefined)	.	-1.3
CC1CC(C)CN(C(=O)c2ccc3c(c2)N(C)C(=O)/C(=C/c2cccc(Cl)c2)S3)C1 (centres undefined)	1.3	-0.4
COC(=O)c1sccc1-n1cc(C(=O)C(C)Oc2ccccc2)nn1 (centres undefined)	-0.35	.
Cn1c(=O)c2c(nc(SCc3ccc(C(=O)O)cc3)n2C)n(C)c1=O	-0.66	-0.7
CCOC(=O)c1c(C)nn(-c2ncccc2[N+](=O)[O-])c1C	-0.09	.
Cc1cc(C)c(S(=O)(=O)N2CCNC(=O)CC2)c(C)c1	0.18	0.35
CCOC(=O)N1CCN(C(=O)c2sc3ncn(C)c(=O)c3c2C)CC1	-0.88	.
COC(=O)C1=C(C)OC(N)=C(C#N)C1c1ccc(Cl)cc1 (centres undefined)	0.57	-1.1
O=C(O)CCCC(=O)Nc1cccc(C(=O)O)c1	0.69	0.3
O=C(COC(=O)Cc1c[nH]c2ccccc12)Nc1ccccc1	4.1	-0.95
O=c1cc(CN2CCN(S(=O)(=O)/C=C/c3ccccc3)CC2)nc2sccn12	.	0.2
Cc1oc(C(=O)O)cc1CSCc1cc(C(=O)O)oc1C	.	-0.35
COC(=O)c1ccc(C(=O)OC)c(NC(=O)c2cnn3c(C(F)(F)F)cc(-c4ccc(OC)c(OC)c4)nc23)c1	-0.49	.
COc1ccccc1C1C2=C(CC(C)(C)CC2=O)Nc2n[nH]c(C)c21 (centres undefined)	61	-0.5
CCOc1ccccc1NC(=O)c1cc(S(=O)(=O)N2CCN(Cc3ccc4c(c3)OCO4)CC2)ccc1F	0.06	.
COc1ccc(NC(=O)c2c(NC(=O)CSc3nnc(C4CC4)n3C)sc3c2CCCC3)cc1	.	1.6
O=C1Nc2ccccc2/C1=C/c1ccccc1	-3.4	0
Cc1cc(C)nc(SCc2nc3sccn3c2Br)n1	0.51	0.15
CC1(C)CC(=O)C(C2C3=C(CC(C)(C)CC3=O)Oc3ccccc32)C(=O)C1 (centres undefined)	-0.075	0.5
COc1ccc(CCNC(=O)CSc2nc3ccccc3c(=O)n2CCCC(=O)NCCc2ccccc2)cc1OC	-0.61	.
O=c1oc(/C=C/c2ccco2)nc2sc3c(c12)CCCCC3	-0.92	.
Cc1cc(/C(=N/O)C(C)(C)NO)ccc1Cl	-1.1	1.8
CC(=O)n1c2c(c3ccccc31)OC(N)=C(C#N)C2c1ccc(C(C)C)cc1 (centres undefined)	3.7	0.35
CNC(=O)c1cc2c(=O)n3ccccc3nc2nc1NC1CCCC1	.	-0.65
CCn1cc(NC(=O)NCc2ccco2)c(=O)c2ccc(C)nc21	6.7	-0.5
COc1ccc(C2c3ccsc3CCN2C(=O)NC(C)(C)C)cc1 (centres undefined)	0.59	0.85
CCC(=O)OC1(c2cccc(C)c2)CC(C)N(C)CC1C (centres undefined)	0.32	-1.1
Cc1nc(Cc2c(Cl)cccc2Cl)[nH]c(=O)c1Cl	-0.88	0.2
CCOC(=O)Cc1nnc2c(Nc3cc(C)ccc3C)nc3nonc3n12	.	0.1
O=C(Nc1ccc(S(=O)(=O)NCC2CCCO2)cc1)C1CC(=O)N(c2ccc(Cl)cc2)C1 (centres undefined)	.	-0.4
O=C(NCCCN1CCN(c2cccc(Cl)c2)CC1)c1nc(-c2ccncc2)no1	-0.095	0.65
Cc1ccc(C=Nc2ccccc2OCc2ccccc2)cc1C	1.2	-0.6
Cc1ccc(-c2nnc(N3CCOCC3)c3ccccc23)cc1S(=O)(=O)N(C)C	0.66	.
Cc1ccc(N(C)C(=O)CCS(=O)(=O)c2ccc3c(c2)n(C)c(=O)c(=O)n3C)cc1	1	1.8
COc1ccccc1CN(C)C(=S)NC1CC1	.	-0.65
CCn1cc(N)c(C(N)=O)n1	.	0.1
c1cc(CNC2CCCCC2)n(-c2nnc(N3CCCC3)s2)c1	0.45	-0.05
CCOC(=O)c1sc2ncn(CC(=O)N(CC)CC)c(=O)c2c1C	-0.2	.

Following part:
SMILES	Ba CapD inh	AID504770
CCOc1ccc(OCC(=O)Oc2ccc3c(c2)OCO3)cc1	.	-0.55
O=C(NN1S(=O)(=O)c2ccccc2S1(=O)=O)c1ccco1	-5.7*	.
Cc1ccc(-n2nc3c(n2)/C(=N/O)CCC3)cc1	16	-0.35
CS(=O)(=O)NCC(O)Cn1c2ccccc2c2ccccc21 (centres undefined)	16	0.35
Cc1cccc(C)c1NC(=O)C(Cc1c[nH]c2ccccc12)NC(=O)OC(C)(C)C (centres undefined)	0.44	.
COC(=O)c1ccc(S(=O)(=O)N2CCCN(Cc3ccccc3)CC2)n1C	1	0.75
O=C(CCC(=O)NC1CCCC1)Nc1nc(-c2cc3ccccc3oc2=O)cs1	15	-0.45
COc1cccc(CN=Cc2ccc(O)c(Cc3c(F)cccc3Cl)c2O)c1	-0.64	.
O=C(c1cnn2c1NC(c1ccc(Br)cc1)CC2C(F)(F)F)N1CCCC1 (centres undefined)	.	0.1
COc1ccc(C(=O)Nc2ccc3c(c2)C(=O)N(C)C3=O)cc1OC	-0.18	0.25
O=C(Cc1ccccc1)Nc1cccc(S(=O)(=O)c2cccc(NC(=O)Cc3ccccc3)c2)c1	6.2	0.25
Cc1ccc(NC(=O)c2c(O)c3ccccc3[nH]c2=O)c(C)c1	.	-0.35
O=C(c1cccnc1)N(C1CCCCC1)C1CCCCC1	-0.28	0.3
CN1CC=C(c2noc(CCC(=O)Nc3nc4ccccc4s3)n2)CC1	0.92	0.15
CN(C)Cc1c(O)ccc2cc(-c3nc4ccccc4[nH]3)c(=O)oc12	i	0.45
CCC(C)(C)C(=O)NC(c1ccccc1)c1ccccc1	0.41	-0.6
COc1ccc(S(=O)(=O)Nc2ccc3c(c2)CCN3S(C)(=O)=O)cc1	-0.35	.
